Assay outcomes from PubChem BioAssay.
Ba CapD inh – inhibitors of Bacillus anthracis CapD enzyme; purified CapD enzyme, fluorescence intensity read-out; active compounds read low; some hits fall short of the stated cut; z-score (test concentration not listed); 140,000 tested, 0.23% active; AID 492967;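 active = z-score under -4 in either of two replicates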;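 also: stock transfer was 100 nL into about 40 µL; score is relative to mean and spread of the plate; one replicate is shown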
AID504770 – E. coli YBA685 growth inhibition, screen for V. cholerae RctB inhibitors. E. coli YBA685 rctB-dependent plasmid, OD600 growth, 3 h; active compounds read low. z-score (concentration not given with the values). 130,000 tested, 0.27% active. AID 504770;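 active = z-score under -2 on both plates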;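 also: wells of about 30 µL received 100 nL stock; score is relative to mean and SD of the test wells; the first replicate is given; strong numbers were not always called active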
Active calls of the source: *; / = not tested or not shown; & = joins results of further samples. Rows are unselected; overall some 0.41% were active at least once.

nr	Molecule	Ba CapD inh	AID504770
1	O=C(CN1CCN(S(=O)(=O)/C=C/c2ccccc2)CC1)NC1CCCc2ccccc21 (stereo not drawn)	/	-0.45
2	Cc1ccc2c(c1)N(C(=O)n1ccnc1)CC(C)O2 (stereo not drawn)	-0.905	1.5
3	CCS(=O)(=O)CCSc1nc2c(cc1C#N)CCCC2	-0.025	-1
4	CC1CN(C(=O)c2ccccc2)OC(c2cccc(O)c2)O1 (stereo not drawn)	0.005	-0.25
5	O=C(O)COc1ccc(Br)cc1	-0.615	-1.1
6	COc1ccc(Br)c(C(=O)Nn2c(-c3ccc(F)cc3)nc3ccccc3c2=O)c1	-0.16	/
7	Cc1cccc(C2(c3cccc(C)c3)CC2C(=O)Nc2ccccc2F)c1 (stereo not drawn)	-0.23	/
8	Cc1cc(Cl)cc2c(=O)c(C(=O)O)c[nH]c12	0.335	/
9	Nc1ncnc(Nc2nc(-c3ccccc3)cs2)n1	0.775	/
10	Nc1c(-c2ccccc2)c(CN2CCOCC2)nn1-c1ccc(F)cc1	-0.795	-0.45
11	N#CC1=C(SCC(=O)Nc2ccc(Br)cc2)NC(=O)CC1c1ccccc1Cl (stereo not drawn)	0.715	/
12	CCCN1C(=O)S/C(=C\C(=O)O)C1=O	/	1.35
13	CCOC(=O)CC(=O)CSc1nc(N)c(C#N)c(-c2ccc(F)cc2)c1C#N	5.03	/
14	COc1ccc(C2C(C(=O)Nc3ccccn3)c3ccccc3C(=O)N2C2CCCCC2)cc1 (stereo not drawn)	-0.115	-0.05
15	CC1=C(C(=O)Nc2ccccc2)C(c2ccc(O)cc2)n2nnnc2N1 (stereo not drawn)	-0.06	/
16	CCOc1ccc(N(C)S(=O)(=O)c2ccc3[nH]cc(C(=O)NCCc4ccccc4)c(=O)c3c2)cc1	2.57	/
17	c1coc([C@H]2Nc3ccccc3[C@H]3OCC[C@@H]23)c1	-0.64	0.05
18	CCCCCOc1ccc(C2N=C(N)Nc3nc4ccccc4n32)cc1 (stereo not drawn)	/	-0.7
19	CC(=O)Nc1ccc(N2C(=O)CSC2c2ccc(Br)cc2)cc1 (stereo not drawn)	-0.07	/
20	CSc1nc(N)n(-c2c(Cl)cc(Cl)cc2Cl)n1	-0.075	/
21	N#CCC(=O)Nc1cccc(Cl)c1Cl	/	-1.1
22	Cc1ccc(Sc2ccc(NC(=O)c3cccc(C(F)(F)F)c3)cc2)cc1	0.505	/
23	Cc1cccc(CCCOCCOC(=O)NNC(=O)c2ccc(-c3ccccc3)cc2)n1	5	/
24	CCCCn1c(N)c(N2CCOCC2)c(=O)n(CC(=O)NCCc2ccccc2)c1=O	/	-1.15
25	Cc1c(NC(=S)NCCCN2CCOCC2)c(=O)n(-c2ccccc2)n1C	/	-0.3
26	NC(=O)COC(=O)c1ccc2c(c1)C(=O)N(Cc1ccco1)C2=O	/	-0.5
27	CCN(Cc1ccccc1)C1CCN(Cc2ccc(SC)cc2)CC1	0.005	0.15
28	COc1ccc2nnnn2n1	0.725	-0.1
29	COc1ccc(C(=O)n2nc(C)cc2Nc2ccccc2)cc1	/	0.05
30	COc1cccc(NC(=O)c2ccccc2N(C)C(=O)CCC(=O)N2CCC(C)CC2)c1	/	-0.85
31	CC1Cc2ccccc2N1C(=O)COC(=O)c1n[nH]c2ccccc12 (stereo not drawn)	0.105	0.15
32	O=C(Cn1cccc1)Nc1cccc(F)c1	-0.15	-0.65
33	N#Cc1ccc(C=Nc2cc(Cl)c(N)cc2Cl)cc1	-1.09	-0.3
34	O=C(Cc1ccccc1F)Nc1cc2c(cc1Br)OCCO2	/	-0.5
35	Cc1cc(C(=O)Cn2cnc3sccc3c2=O)c(C)n1CC1COc2ccccc2O1 (stereo not drawn)	/	0.45
36	CCOc1ccsc1C(=O)NNC(=O)OCCn1c([N+](=O)[O-])cnc1C	-1.59	/
37	Clc1ccc(Sc2ncccn2)cc1	-0.48	0
38	CCC(Sc1nc2ccccc2c2nc3ccccc3n12)C(=O)N1CCOCC1 (stereo not drawn)	-0.48	2.25
39	CCOC(=O)Cc1ncccc1C(=O)Nc1cccc(C(F)(F)F)c1	-1	/
40	COc1cccc(C(c2c(O)[nH]c(=S)[nH]c2=O)N2CCOCC2)c1OC (stereo not drawn)	0.91	-0.7
41	COC(=O)CC1=Nc2ccccc2NC(=O)C1	-0.765	1.15
42	CCCN(CC(=O)N1CCc2ccccc21)S(=O)(=O)c1cccc(C(F)(F)F)c1	/	0.45
43	CCN(CCc1ccccn1)S(=O)(=O)c1ccc(Br)s1	0.555	/
44	CCC(C)Sc1nc2ccccc2[nH]1 (stereo not drawn)	/	-0.25
45	Cc1[nH]c2ccccc2c1C(c1cccs1)N1CCCC1 (stereo not drawn)	-0.545	-1.9
46	COc1cccc(CC(C#N)c2c(C#N)c(N)nc(N3CCOCC3)c2C#N)c1 (stereo not drawn)	/	0.35
47	Cn1c(=NC(=O)c2ccc(Cl)s2)sc2cc(S(C)(=O)=O)ccc21	1.04	-0.1
48	O=C1CC(c2c(F)cccc2Cl)c2cc(Br)c3ccccc3c2N1 (stereo not drawn)	0.02	/
49	Cc1cc(C(=O)OCc2cc(Cl)cc3c2OCOC3)c2ccccc2n1	/	0.1
50	CCN(CC)c1ccc(NC(=O)C2(c3ccccc3)CC2)cc1	/	-0.45
51	CCOC(=O)c1cccnc1SC(CC)C(=O)NCc1ccco1 (stereo not drawn)	-0.22	0.55
52	CC1Cn2c(nnc2-c2ccccc2O)S1 (stereo not drawn)	1.04	1.55
53	CN(C1CCCCC1)S(=O)(=O)c1ccc(S(=O)(=O)N(Cc2cccs2)CC2CCCO2)cc1 (stereo not drawn)	/	-0.25
54	N#CSCC(=O)C12CC3CC(CC(C3)C1)C2	1.06	-0.1
55	COc1cc(CN2CCN(CCOC(=O)NNC(=O)CSCc3nc(-c4ccccc4)cs3)CC2)cc2c1OCO2	0.005	/
56	CNC(=O)COc1coc(CN2c3ccccc3CC2C)cc1=O (stereo not drawn)	/	0.55
57	CCOC(=O)C1=C(N)OC2=C(C(=O)CC(c3ccccc3)C2)C1c1ccc(Br)cc1 (stereo not drawn)	-0.645	/
58	Cn1cc(CC(=O)N2CCN(C3CCCCC3)CC2)c2ccccc21	0.02	-2.1
59	Clc1nc2ccccc2c(N2CCCCC2)c1CNCc1ccco1	/	0.75
60	O=C(CSC1=NCCN1)NC1CCCCCC1	0.955	0.85

A draw from above in order of length of the SMILES, low to high.
nr	Molecule	Ba CapD inh	AID504770
51	CCOC(=O)c1cccnc1SC(CC)C(=O)NCc1ccco1 (stereo not drawn)	-0.22	0.55
49	Cc1cc(C(=O)OCc2cc(Cl)cc3c2OCOC3)c2ccccc2n1	/	0.1
46	COc1cccc(CC(C#N)c2c(C#N)c(N)nc(N3CCOCC3)c2C#N)c1 (stereo not drawn)	/	0.35

(next part)
nr	Molecule	Ba CapD inh	AID504770
61	CCOC(=O)c1oc2cc3sc(N4CCCCC4)nc3cc2c1C	7.16	0.65
62	C=CCOc1ccc(C=Nc2c(C)n(C)n(-c3ccccc3)c2=O)cc1OC	0.125	/
63	COc1cccc(NC(=O)N(Cc2ccc(C)cc2)Cc2cccn2-c2nnc(N3CCCC3=O)s2)c1	0.015	0.1
64	CCc1ccc2[nH]c(C(=O)NCCN3CCOCC3)cc2c1	4.6	-0.5
65	Cc1ccc(S(=O)(=O)CCC(=O)OCc2cccc(S(=O)(=O)N3CCOCC3)c2)cc1	/	-0.65
66	O=c1c2c3c(sc2nc(NCCO)n1-c1ccccc1)CCCC3	/	-0.1
67	COc1ccccc1C(=O)NC(=O)CSc1cccc[n+]1[O-]	/	0.15
68	CC1CC(=O)C2=C(C1)Nc1ncnn1C2c1cc(F)cc(F)c1 (stereo not drawn)	/	2.2
69	CCOC(=O)C1=c2s/c(=C/c3cccc(F)c3)c(=O)n2C(N)=C(C#N)C1c1cccc(F)c1 (stereo not drawn)	-0.93	/
70	CCOc1ccc(NC(=O)c2cc(=O)[nH]c3ccccc23)cc1	0.42&-0.39	0.05&0.05
71	CCOC(=O)c1cc(C#N)c(SCC(=O)c2cc3ccccc3oc2=O)[nH]c1=O	/	0.1
72	COc1ccc(C(C)(C)C)cc1NC(=O)COC(=O)CC1CCCC1	0.065	1.45
73	C/C(=N\NS(C)(=O)=O)c1ccc(Br)cc1	0.205	-0.5
74	Cc1cc(N2CCN(C)CC2)nc2ccc(NC(=O)NCc3ccc(F)cc3)cc12	75.6	-0.8
75	c1ccc(CCNc2nc3ccccc3n3cnnc23)cc1	-0.61	1.15

Exported with two lines to a compound: entries from further up.
Sequence of screens – Ba CapD inh	AID504770
(49) Cc1cc(C(=O)OCc2cc(Cl)cc3c2OCOC3)c2ccccc2n1
→ /	0.1
(26) NC(=O)COC(=O)c1ccc2c(c1)C(=O)N(Cc1ccco1)C2=O
→ /	-0.5
(2) Cc1ccc2c(c1)N(C(=O)n1ccnc1)CC(C)O2 (stereo not drawn)
→ -0.905	1.5

(listing goes on)
nr	Molecule	Ba CapD inh	AID504770
76	Cc1cc(=S)cc(C)n1CCCn1ccnc1	/	2.5
77	CCOc1ccc(C(=O)CCc2nc3ccccc3s2)cc1	-0.515	-0.55
78	CCOC(=O)c1cn(Cc2cccc(Cl)c2)c2cc(C)nn2c1=O	87.6	-0.45
79	Cc1ccnc(N/C=C(/NC(=O)c2ccccc2)C(=O)N/N=C\N(C)C)n1	-0.895	/
80	Cn1c(O)c(C=Nc2cccc(CO)c2)c2ccccc21	-0.945	1.5
81	O=C(O)C1CC=CCC1C(=O)N1CCN(C/C=C/c2ccccc2)CC1 (stereo not drawn)	0.305	0.05
82	CCOC(=O)c1sc2nc(C)cc(C)c2c1NC(=O)Nc1ccc(Cl)cc1	22.4	0.2
83	CC1=C(C(=O)Nc2ccccc2C)C(c2ccccc2)NC(=O)N1 (stereo not drawn)	-0.84	/
84	CCN(CCS(=O)(=O)c1ccc(C)cc1)S(=O)(=O)c1ccccc1	0.56	/
85	CCN(CC)CCC(=O)N1c2ccccc2CCc2ccc(NC(=O)C(C)C)cc21	0.4	/
86	O=C(NC1CCCC1OCc1ccccc1)OCCCCCc1ccccc1 (stereo not drawn)	-0.32	/
87	CCN(CC)c1ccc2cc(-c3nnc(-c4ccccc4)o3)c(=O)oc2c1	-0.52	/
88	CC12CCC(=O)N1C(C(=O)O)Cc1c2[nH]c2ccccc12 (stereo not drawn)	/	-0.45
89	Cc1ccc2c(c1)N(CC(=O)N1CCOCC1)C(=O)c1cccnc1O2	0.49	0.3
90	CN(Cc1ccc(Cl)s1)Cn1c(=O)oc2ccccc21	/	0.15
91	O=C(CCSCc1ccccc1F)N1CCN(c2cccc(Cl)c2)CC1	-0.035	-0.6
92	CCCn1c(=O)c2sccc2n2c(CCCC(=O)Nc3ccccc3)nnc12	0.185	-0.15
93	CCOC(=O)c1ccc(NC(=O)CSc2nc3ccccc3c(=O)n2CCCC(=O)NCc2ccco2)cc1	-0.25	/
94	O=C(O)CSCC(=O)Nc1ccc(Br)c(C(F)(F)F)c1	0.79	/
95	O=S(=O)(c1ccc(C2Nc3ccc(Cl)cc3C3C=CCC32)cc1)N1CCOCC1 (stereo not drawn)	-0.64	/
96	O=C(NN1C(=O)CSC1=S)c1ccccc1	0.135	-0.45
97	CCOC(=O)c1c2ccc(OCc3c(F)cccc3Cl)cc2n2ccccc12	0	/
98	O=C(Nc1ccccc1)n1nccc1-c1sccc1Cl	-0.81	0.45
99	FC(F)(F)c1cccc(CO/N=C2/COc3ccc4ccccc4c32)c1	0.77	/
100	COc1cccc(NC(=O)c2ccccc2S(C)(=O)=O)c1	/	-0.35
101	Cc1ccc(N2CCN(CC(=O)Nc3c(C(=O)C4CC4)oc4ccccc34)CC2)cc1	0.705	0.7
102	Cc1ccc(-c2c(C#N)c(SCC(=O)c3cc4ccccc4oc3=O)nc(C)c2C(=O)Nc2ccccc2C)o1	/	0.05
103	CCCN(c1ccc(C)cc1)c1nc(=O)c2cccnc2s1	-0.67	1.05
104	O=S(=O)(CCc1ccccc1)N1CCOCC1	1.71	0
105	CN(C)S(=O)(=O)c1ccc2c(c1)C(=C(C#N)C#N)c1cc(S(=O)(=O)N(C)C)ccc1-2	/	1.45
106	O=C(NCCCN1CCCC1=O)c1ccc(Cn2c(SCc3ccccc3)nc3ccncc32)cc1	1.27	-0.5
107	CCC(=O)N(c1nnc(SCC(=O)N2CCC(c3ccccc3)=N2)s1)C1CC1	/	-0.4
108	Cc1c(C(c2cccc(I)c2)c2c(C)n(C)n(-c3ccccc3)c2=O)c(=O)n(-c2ccccc2)n1C	0.045	/
109	Cc1ccc(-n2ncc3c(NNC(=O)c4ccco4)ncnc32)c(C)c1	-0.145	0.05
110	N#CC(=C1CCCC1)c1nc(-c2ccc(Br)cc2)cs1	-0.435	/
111	COc1ccc(C2=N/C(=C\c3coc4c(Cl)cc(Cl)cc4c3=O)C(=O)O2)cc1[N+](=O)[O-]	0.5	/
112	Clc1cccc(Nc2nnc(-c3ccc(Br)cc3)o2)c1	/	-0.05
113	CCCCn1c(CNC(=O)c2ccco2)nnc1SC(C)C(=O)Nc1sc2c(c1C(=O)OCC)CCCC2 (stereo not drawn)	-0.17	/
114	O=C(O)CC(=O)Oc1ccc(Cl)cc1	-1.18	0.75
115	CC1CCCCN1C(=O)Cn1c(=O)n(CCCS(=O)(=O)C2CCCCC2)c(=O)c2ccccc21 (stereo not drawn)	2.63	-0.55
116	CCCCN(C)c1ccc(C(=O)OC)cc1NC(=S)Nc1cccc(C)c1	-0.07	-0.75
117	COc1ccc(CN2C(=O)CC(C(=O)Nc3ccc(F)cc3)SC2=Nc2ccccc2)cc1 (stereo not drawn)	-0.02	/
118	O=C(C/C(=C1/Cc2ccccc2C1=O)c1ccccc1)c1ccccc1	-0.555	1.4
119	CCOc1ccc(NC(=O)Cn2c(SCC)nc3ccccc32)cc1	0.385	/
120	CCn1c(C(=O)N2CCC(C(=O)N3CCCCC3)CC2)cc2sccc21	3.83	-0.2
